Bioassay records (PubChem BioAssay)
FEN1 inh: blocks human flap endonuclease 1. Potency, µM (highest dose often 114 µM), for the others: top-dose activity change, negative = inhibition, most hits filed as inhibitors. Recombinant FEN1 flap cleavage, fluorescence, 15 min. AID 588795. P39748. 390,000 compounds, 0.35% hits; also: nearly all actives have a fitted effect of over 65% in size
Target sequence (P39748 whole entry, looked up): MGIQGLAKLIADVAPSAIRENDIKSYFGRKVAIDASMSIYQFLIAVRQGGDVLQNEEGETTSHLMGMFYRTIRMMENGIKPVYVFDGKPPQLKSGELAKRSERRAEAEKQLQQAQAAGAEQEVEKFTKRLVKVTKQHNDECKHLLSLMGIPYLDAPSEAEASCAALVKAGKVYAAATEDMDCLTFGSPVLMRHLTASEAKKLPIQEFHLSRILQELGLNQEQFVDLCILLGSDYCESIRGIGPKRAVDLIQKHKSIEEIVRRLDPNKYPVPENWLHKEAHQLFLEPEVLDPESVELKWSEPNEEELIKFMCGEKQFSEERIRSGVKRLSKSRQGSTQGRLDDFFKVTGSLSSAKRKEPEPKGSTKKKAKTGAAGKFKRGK
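With each library titrated from low to high concentration, compounds met 10 nM FEN1 for 15 min at room temperature before 50 nM substrate was added; readings at 0 and 15 min fed four-parameter Hill curve fits.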
N370S GC: N370S glucocerebrosidase modulation, Gaucher chaperone candidate. 330,000 compounds, 0.092% hits. N370S GC spleen homogenate, 4MU-glucoside fluorescence. P04062. Potency, µM (doses to about 59.4 µM), for inactives: at the top dose activity change, negative = inhibition, actives largely listed as inhibitors;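 also: 0% = full enzyme activity and -100% = no enzyme basal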
An asterisk follows results filed as active; ? = inconclusive; . = no result given; & = joins results of further samples; [ ] = another dose, or the depositor's remark. Calls follow the shape of the dose curve; as a rule, active = well fitted curve in the direction sought with a large enough effect; inconclusive = small, poorly fitted or top-dose-only effect, or another doubt; inactive = no such curve, though single readings can be large; an effect the other way counts as inactive or inconclusive. Unless noted, % is scaled to controls: 0 for no effect and ±100 for the full control effect; potency is read from the fitted curve at half-maximal effect. An excerpt; most or all hits stand in other tables.

SMILES | FEN1 inh | N370S GC
CC(=O)C1CCN(Cc2ccccc2)CC1 | 4% | 4%
Cc1cccc(C(=O)NCCNc2nc3cc(C)c(C)cc3cc2C)c1 | 12% | -28%
Cc1cc(Cl)c(C)c(S(=O)(=O)N2CCN(CC(=O)N3CCOCC3)CC2)c1Cl | -15% | .
O=C(Nc1ccccc1-c1ccccc1)c1ccco1 | 1% | 6%
Cc1ccc(/C=N/NC(=O)c2c(-c3ccccc3)noc2C)o1 | 10% | 0%
O=C(O)c1cccc(NS(=O)(=O)c2ccc3nnn(O)c3c2)c1 | 2% | 24%
CNC(=O)C(C)NS(=O)(=O)c1ccc(F)cc1 (stereo not given) | 6% | 7%
COC(CNC(=O)c1c[nH]c2ccc(S(=O)(=O)N3CCC4(CC3)OCCO4)cc2c1=O)OC | 1% | -2%
O=C(c1cc(-c2ccc(Cl)cc2Cl)on1)N1CCN(C(=O)c2ccco2)CC1 | -14% | 12%
COc1ccc(C2(CNC(=O)c3ccc(OC)c([N+](=O)[O-])c3)CCOCC2)cc1OC | 6% | 4%
Cc1cccc(C)c1NC(=O)CN(C)C(=O)c1cccc(S(=O)(=O)N2CCN(c3ccccc3)CC2)c1 | 4% | -2%
CCCCCCc1nc(C(N)=O)c2[nH]c(=O)n(-c3ccccc3F)c2n1 | 19% | ?
Cc1cc(Cl)ccc1OC(C)C(=O)NCCc1ccc2c(c1)OCCO2 (stereo not given) | 7% | 2%
COc1ccc2nc(/C=N/NC(=O)CCNC(=O)OC(C)(C)C)ccc2c1 | -9% | 16%
Cc1oc(C(C)(C)C)cc1C(=O)NC1CCN(Cc2ccccc2)CC1 | 0% | -7%
Cc1cc(/C=N\NC(=O)CC(=O)NC2CCCCC2)c(C)n1-c1cccc(Cl)c1Cl | -7% | -25%
O=C(CN1CCN(C(=O)C2CC2)CC1)Nc1ccc(Cl)cc1F | 8% | -1%
CCCC(=O)Nc1sc(C(=O)Nc2cccc(N)c2)c(C)c1C(=O)OC | 1% | 17%
CCCCCc1c(C)nc(SCC(=O)O)[nH]c1=O | 8% | 7%
CC(=O)N1CCOc2ccc(S(=O)(=O)NCCc3cccc(C)c3)cc21 | 8% | -18%
CCOC(=O)C1=C(C)N=c2s/c(=C/c3ccccc3)c(=O)n2C1c1ccc(OC)c(OC)c1 (stereo not given) | -7% | 1%
O=C(NC(=S)Nc1nc(-c2ccc([N+](=O)[O-])cc2)cs1)c1ccco1 | 8% | 8%
COc1cc(CNCCN2CCOCC2)ccc1OCc1ccc(Cl)cc1Cl | 9% | ?
COc1ccc(S(=O)(=O)Cc2ccc(C(=O)N3CCc4ccccc4C3)o2)cc1 | 13% | -1%
COc1ccc(CCNc2nc(-c3sc(C)nc3C)cs2)cc1OC | -7% | -5%
O=C(c1ccc(S(=O)(=O)N2CCCC2)cc1)N(c1ccccc1)C1C=CS(=O)(=O)C1 (stereo not given) | 2% | 0%
Cc1noc(C)c1NC(=O)N(C)C[C@H]1Oc2c(NC(=O)c3ccncc3)cccc2C(=O)N([C@H](C)CO)C[C@@H]1C | 17% | .
CCOC(=O)c1ccc(NC(=O)/C=C/c2cccs2)cc1 | -17% | 18%
O=C(Nc1ccc2c(c1)CCC2)c1ccc(Br)o1 | -6% | 20%
CC(C)COc1ccc(S(=O)(=O)NNC(=O)c2cc3ccccc3o2)cc1 | 5% | 3%
N=c1n(CCO)c2ccccc2n1Cc1ccccc1Cl | 1% | -7%
Cc1cc(C)nc(NS(=O)(=O)c2ccc(NC(=O)COc3ccccc3F)cc2)n1 | -3% | .
Cn1cccc1P(=O)(c1cccn1C)c1cccn1C | 8% | -11%
COc1ccc(N/C=C/C(=O)c2ccc(Oc3ncccn3)cc2)cc1 | -8% | 8%
Cn1cccc1/C=C1\SC(=O)N(CC(=O)Nc2ccc(Cl)cc2)C1=O | 3% | -29%
COc1ccc(-n2nc3cc(C)c(NC(=O)c4cccnc4)cc3n2)cc1 | -1% | 0%
COc1ccc(NC(=O)CCc2nc3ccccc3s2)c(OC)c1 | 10% | 4%
Cc1ccc(Cl)cc1N1CCN(C(=O)C2CCCN(S(=O)(=O)c3ccc(Br)s3)C2)CC1 (stereo not given) | 7% | .
COc1ccccc1CNC(=O)CCc1c(C)c2cc3c(C)c(C)oc3cc2oc1=O | 0% | .
CCCCn1c(SC(C)C(=O)c2ccc(OC)cc2)nc2cc(S(N)(=O)=O)ccc21 (stereo not given) | ? | -9%
Cc1nc2scc(-c3ccc(C(C)(C)C)cc3)c2c(=O)n1N | -9% | -2%
COc1ccc(OCC(=O)Nc2ccc3c(c2)CCC3)cc1 | -7% | .
Cn1ccnc1SCC(=O)Nc1nc2ccccc2s1 | 4% | 21%
CN(CC(=O)Nc1ccc(F)cc1)C(=O)C1CC(=O)N(Cc2ccccc2)C1 (stereo not given) | 5% | -2%
CCCn1c(N)c(C(=O)CSc2nnnn2-c2ccc(O)cc2)c(=O)n(C)c1=O | 2% | 4%
CCN1CCN(c2csc3ccc(F)cc3c2=O)CC1 | -4% | .
Cc1ccc2nc(C(=O)O)c(C(=O)O)nc2c1 | -2% | 2%
O=C(Nc1ccc(F)cc1F)c1c(C(F)(F)F)ccnc1Oc1ccccc1 | -1% | 1%
CCOC(=O)C(NC(=O)Nc1ccc(Cl)cn1)(Oc1ccc(F)cc1)C(F)(F)F (stereo not given) | 11% | 0%
CC(=O)NCCn1c(SCC(=O)NCCC2=CCCCC2)nc2ccccc2c1=O | 1% | 0%
Cc1onc(-c2ccccc2)c1C(=O)N1CCN(S(=O)(=O)c2ccc(OC(F)(F)F)cc2)CC1 | 8% | -18%
O=C(CN1C(=O)c2ccccc2C1=O)OC(C(=O)c1ccc(Cl)cc1)c1ccccc1 (stereo not given) | -3% | .
O=C(COC(=O)c1ccc(S(=O)(=O)C(F)F)cc1)Nc1ccccc1C(=O)NC1CC1 | 8% | .
OC(c1nnc(-c2ccccc2)o1)c1cccs1 (stereo not given) | 16% | 6%
CC(c1nnc(SCC(=O)N2CCc3ccccc32)n1-c1ccc(Cl)cc1)N(C)C (stereo not given) | 2% | -3%
Cc1ccc(Nc2ncnc3c2oc2ccccc23)cc1 | 0% | 10%
Cc1sc2ncnc(SCC(=O)N3CCC(c4noc5ccc(F)cc45)CC3)c2c1C | -10% | 5%
Cc1ccc(S(=O)(=O)N2CCOCC2)cc1C(=O)Nc1ccccc1N1CCOCC1 | 10% | .
COc1ccc(NC(=O)C(CC(=O)O)Cc2ccc(C)cc2)cc1 (stereo not given) | -1% | -15%
CCn1nnc2cc(C(=O)Nc3ccc(C)cc3Br)ccc21 | 14% | .

Further structures:
SMILES | FEN1 inh | N370S GC
Nc1ncn([C@H]2O[C@@H](CO)[C@@H](O)[C@@H]2O)c(=O)n1 | . | 1%[21.6 µM]
O=C(O)c1cccc(NS(=O)(=O)c2ccc(Cl)c(C(=O)O)c2)c1 | -2% | 6%
Cc1ccc(C)c(OCC(=O)NNC(=O)C2CCC2)c1 | 3% | .
COC(=O)[C@@]1(Cc2ccc(F)cc2)[C@H]2c3cc(C(=O)N4CCCC4)n(C[C@H](O)CO)c3C[C@H]2CN1C(=O)c1ccccc1 | . | 0%
O=C(c1ccc(CSc2nc3ccncc3[nH]2)cc1)N1CCCCC1 | 14% | 9%
CCOC(=O)c1c(S(=O)(=O)NCC(=O)NCc2ccccc2Cl)c(C)n(C)c1C | 14%&17% | -6%
Cn1cc(S(=O)(=O)Nc2cccc3ccccc23)c(=O)n(C)c1=O | -1% | -7%
COc1cccc(-c2nc(SCC(=O)NCc3ccccc3)c3c(=O)n(C)c(=O)n(C)c3n2)c1 | 14% | .
CCc1ccc(C(=O)c2cn(CC(=O)Nc3ccc(F)cc3)c3ccc(OC)cc3c2=O)cc1 | 14% | .
CC(=O)c1ccc(OCC(=O)OC(C)C(=O)NC2CCCCC2C)cc1 (stereo not given) | 18% | .
N#Cc1c(N2C(=O)Nc3ccccc3N2O)sc2c1CCCCCC2 | 2% | 22%
CCc1ccc2c(c1)cc(CN(Cc1ccco1)C(C)=O)c1nnnn12 | 12% | 1%

Sorted by heavy-atom count (smallest number first): 17 of the compounds above.
SMILES | FEN1 inh | N370S GC
CC(=O)C1CCN(Cc2ccccc2)CC1 | 4% | 4%
CCCCCc1c(C)nc(SCC(=O)O)[nH]c1=O | 8% | 7%
Cc1ccc(C)c(OCC(=O)NNC(=O)C2CCC2)c1 | 3% | .
N=c1n(CCO)c2ccccc2n1Cc1ccccc1Cl | 1% | -7%
CCn1nnc2cc(C(=O)Nc3ccc(C)cc3Br)ccc21 | 14% | .
O=C(O)c1cccc(NS(=O)(=O)c2ccc(Cl)c(C(=O)O)c2)c1 | -2% | 6%
N#Cc1c(N2C(=O)Nc3ccccc3N2O)sc2c1CCCCCC2 | 2% | 22%
COc1ccc(N/C=C/C(=O)c2ccc(Oc3ncccn3)cc2)cc1 | -8% | 8%
CC(C)COc1ccc(S(=O)(=O)NNC(=O)c2cc3ccccc3o2)cc1 | 5% | 3%
O=C(Nc1ccc(F)cc1F)c1c(C(F)(F)F)ccnc1Oc1ccccc1 | -1% | 1%
CCCn1c(N)c(C(=O)CSc2nnnn2-c2ccc(O)cc2)c(=O)n(C)c1=O | 2% | 4%
Cc1cc(/C=N\NC(=O)CC(=O)NC2CCCCC2)c(C)n1-c1cccc(Cl)c1Cl | -7% | -25%
O=C(CN1C(=O)c2ccccc2C1=O)OC(C(=O)c1ccc(Cl)cc1)c1ccccc1 (stereo not given) | -3% | .
CCOC(=O)C1=C(C)N=c2s/c(=C/c3ccccc3)c(=O)n2C1c1ccc(OC)c(OC)c1 (stereo not given) | -7% | 1%
COc1cccc(-c2nc(SCC(=O)NCc3ccccc3)c3c(=O)n(C)c(=O)n(C)c3n2)c1 | 14% | .
Cc1cccc(C)c1NC(=O)CN(C)C(=O)c1cccc(S(=O)(=O)N2CCN(c3ccccc3)CC2)c1 | 4% | -2%
COC(=O)[C@@]1(Cc2ccc(F)cc2)[C@H]2c3cc(C(=O)N4CCCC4)n(C[C@H](O)CO)c3C[C@H]2CN1C(=O)c1ccccc1 | . | 0%

Continuation.
SMILES | FEN1 inh | N370S GC
COc1ccc(C2=NN(CC(=O)NCCc3ccc(OC)c(OC)c3)C(=O)CC2)cc1 | -4% | .
Cc1ccc(C)c(N2CCN(C(=O)CCCOc3cc(=O)n(C)c4ccccc34)CC2)c1 | -1% | -5%
C=CCN1C(=O)C2C3CC(=O)C(c4ccccc43)C2C1=O (stereo not given) | -4% | -5%
CC(C)(C)OC(=O)NC(=NCCCc1cn(CC(=O)N2CCN(C(=O)OC(C)(C)C)CC2)nn1)NC(=O)OC(C)(C)C | -12% | -7%
CC(C)(O)C#Cc1ccc(C(=O)NCc2ccccc2F)cc1 | 9% | 7%
COc1ccc(NC(=O)COC(=O)CNS(=O)(=O)c2ccc(F)c(F)c2F)cc1OC | 1% | 2%
COC(=O)CN(c1nc(C)cc(OC)n1)S(=O)(=O)c1ccc(C)cc1 | -2% | 5%
NC(=O)C1CCN(S(=O)(=O)c2ccccc2[N+](=O)[O-])CC1 | 1% | -2%
O=C(Cc1ccc(Br)cc1)OCC(=O)N1CCOCC1 | -2% | .
CC(NC(=O)[C@@H](C)NC(=O)[C@@H]1Cc2ccccc2CN1C(=O)OC(C)(C)C)c1ccccc1 (stereo not given in full) | -2% | 9%
COC(=O)c1c(C(=O)OC)c(-c2ccccc2)n2c1CS(=O)C2 (stereo not given) | -1% | 27%
CCCCCn1nc(-c2ccccc2)c2nc3ccccc3nc21 | 7% | 6%[12.8 µM]
O=C(NCc1nnc2c(C(F)(F)F)cc(Cl)cn12)c1cccs1 | -8% | 0%
O=C1CSC(c2ccccn2)N1Cc1cn2ccccc2n1 (stereo not given) | 0% | 6%
CCOC(=O)N1CCC(N2Cc3cccc(C(=O)O)c3C2=O)CC1 | 2% | 1%
CC1=CCC(C(=O)O)C(C(=O)Nc2nc3ccc(S(C)(=O)=O)cc3s2)C1 (stereo not given) | -1% | 7%
CCN(Cc1nc2cc(Cl)ccc2c(=O)[nH]1)C(=O)c1cc2c(s1)CCCCC2 | -6% | 23%
Cc1nn(CCS(=O)(=O)c2ccc(Cl)cc2)c(C)c1Br | 10% | -6%
CC1CN(c2ccc(Cl)cc2)c2nc3c(c(=O)n(CC(=O)O)c(=O)n3C)n2C1 (stereo not given) | 16% | .
CN(C)CCCC1(O)c2ccccc2C=Cc2ccccc21 | -12% | -27%
O=C(c1ccc(N2CCN(C3CC(=O)N(c4ccc(F)cc4)C3=O)CC2)cc1)c1cccnc1 (stereo not given) | . | -21%
Cc1noc(C)c1NC(=O)Nc1ccc2c(c1)C(=O)N([C@H](C)CO)C[C@H](C)[C@@H](CN(C)C(=O)NC1CCCCC1)O2 | 2% | .
N=c1c(C(=O)NCC2CCCO2)cc2c(=O)n3ccccc3nc2n1Cc1ccc(F)cc1 (stereo not given) | 11% | ?
Cc1cc(COc2ccccc2O)on1 | -5% | 2%
CN(C)c1ccc(N2C(=NC(=O)CCc3ccccc3)SC3CS(=O)(=O)CC32)cc1 (stereo not given) | 15% | 4%
NCCC[C@@H](CC(=O)N[C@@H]1CCCC[C@H]1C(=O)N[C@H](CC(=O)N[C@@H](CCC(=O)O)CC(=O)O)Cc1ccccc1)NC(=O)C[C@H](CO)NC(=O)[C@@H]1CNCC[C@H]1N | . | -1%
Cc1nn(C)c(C(=O)NNC(=S)NCc2ccccc2)c1Cl | -12% | 2%
Cc1cc(Nc2ncc(Cl)cc2Cl)n(-c2ccccc2C)n1 | -11% | 17%
CC(=O)N1CCc2c(sc3c2c(=O)n(-c2ccccc2)c(=O)n3CC(=O)Nc2cccc(C)c2)C1 | -24% | .
